# From PubChem
# INS promoter inh: TRM-6 insulin promoter activity inhibition; TRM-6 cells (human fetal islet line), insulin promoter-eGFP reporter, imaging; reporter expression induced with tamoxifen; inhibition, % at 2 µM; 130,000 compounds, 0.9% hits; AID 1273;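 active = inhibition above the mean plus 3 SD, with well images judged a real hit on visual review, cut at about 60% in these data, passing the limit was not always enough; inconclusive = inhibition over the cutoff but images rejected on review; inactive = inhibition not above the cutoff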
# PKD1 inh: inhibitors of human PKD1 kinase | AID 797 | PKD1 kinase fluorescence polarization assay | Q15139 | 200,000 compounds, 0.056% hits | inhibition, %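 (about 10 µM by stock and volumes)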;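 active = inhibition of 50% or more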;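 note: controls were vehicle for no effect and a reference inhibitor for full effect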
# Target sequence (Q15139 whole entry, looked up): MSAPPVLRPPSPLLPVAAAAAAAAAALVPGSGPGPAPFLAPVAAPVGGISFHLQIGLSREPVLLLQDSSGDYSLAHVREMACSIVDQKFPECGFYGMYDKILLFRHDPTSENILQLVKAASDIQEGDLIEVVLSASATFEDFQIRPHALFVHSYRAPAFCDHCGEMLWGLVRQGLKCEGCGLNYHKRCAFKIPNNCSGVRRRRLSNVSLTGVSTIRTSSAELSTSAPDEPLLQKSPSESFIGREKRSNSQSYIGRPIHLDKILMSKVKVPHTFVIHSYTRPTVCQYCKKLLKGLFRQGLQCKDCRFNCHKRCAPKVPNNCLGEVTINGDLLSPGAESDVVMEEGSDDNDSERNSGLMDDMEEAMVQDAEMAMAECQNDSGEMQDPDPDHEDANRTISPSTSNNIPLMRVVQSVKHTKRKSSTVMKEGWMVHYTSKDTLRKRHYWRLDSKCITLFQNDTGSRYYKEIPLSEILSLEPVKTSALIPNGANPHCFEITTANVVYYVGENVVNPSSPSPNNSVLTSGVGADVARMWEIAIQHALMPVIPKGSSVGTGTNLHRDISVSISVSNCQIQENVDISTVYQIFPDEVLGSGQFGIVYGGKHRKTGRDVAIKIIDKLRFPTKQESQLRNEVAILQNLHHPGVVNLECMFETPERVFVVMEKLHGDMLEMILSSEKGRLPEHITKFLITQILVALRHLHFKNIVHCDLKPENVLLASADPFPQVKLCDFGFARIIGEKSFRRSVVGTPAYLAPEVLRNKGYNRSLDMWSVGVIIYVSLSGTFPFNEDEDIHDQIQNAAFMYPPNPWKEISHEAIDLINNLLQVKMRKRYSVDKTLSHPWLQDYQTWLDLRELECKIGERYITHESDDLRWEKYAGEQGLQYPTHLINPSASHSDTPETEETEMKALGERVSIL
# RGS16-Gao HTS: regulators of human RGS16-Galphao interaction | O15492+P09471 | bead-based flow cytometry RGS16-Galphao binding, fluorescence; actives lie on both sides | binding response (% of control), % at 10 µM | 220,000 compounds, 0.38% hits;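 active = below 25% or above 175%, edge rows of some plates excepted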;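 note: Galphao activated by GDP with aluminum fluoride before binding; 100% = wells without compound and 0% = beads without RGS; some results beyond the cut were filed as inactive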
# HSV replic up: HSV replication enhancement. maximum fold increase. 220,000 compounds, 0.005% hits. HSV replication augmentation in cells, fold increase;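 active = peak rise of 1.5-fold or more in the series; inconclusive = self-fluorescent or not available for retest; tested in PC3 cells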;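 note: first round at 10 µM; read as green reporter fluorescence; hits show the peak of a series up to 25 µM; 1 = signal of infected wells without compound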
# GALR2 ag: agonists of human galanin receptor 2 (GALR2). GALR2-expressing cells, agonist activation read-out. AID 803. O43603. activation, %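 (tested at 5 µM)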. 140,000 compounds, 0.48% hits;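 active = above mean plus 3 SD of all compounds, about 5% in these data, not always enough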;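 note: 0% = vehicle buffer wells and 100% = reference agonist at full effect; tested in CHO reporter cells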
# INS promoter inh cell count: further read-out of INS promoter inh, marked with its call; normalized cell count, %; measured here: cell count, toxicity; reference of the scale not given here;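 cells exposed to compound for 48 h; stained nuclei by imaging scaled within each plate; lower means fewer cells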
# HSV replic up primary fold: also measured in HSV replic up; calls as there; fold increase; compound at 10 µM; measured here: primary screen fold increase 10 uM; tested in PC3 cells;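 GFP signal in the first replicate; 1 = infected wells without compound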
# * marks the source's active call; other numbers are inactive results; i = inactive; ? = inconclusive; · = no result given.
SMILES,INS promoter inh,INS promoter inh cell count,PKD1 inh,RGS16-Gao HTS,HSV replic up,HSV replic up primary fold,GALR2 ag
COc1ccc(CNC(=O)C2CCCN(c3nccc(C)n3)C2)cc1 (stereo unspecified),-27,171,-17,115,i,0.85,-1.2
NC1=NN=C(c2ccc3c(c2)OCCO3)CS1,·,·,-3,98,i,1,·
N#Cc1c(N2CCCCC2)nc(N2CCCCC2)c2c1CCN(Cc1ccccc1)C2,-148,77,-8,104,i,1.2,1.0
Cc1cc(C)n(-c2ccc(Cl)c(C(=O)O)n2)n1,29,93,-10,100,i,1.1,-2.7
CCN(CC)C(=S)Nc1ccc(OC(F)F)cc1,·,·,-1,95,i,0.93,·
NC(=O)[C@@H]1CC2(CC(c3cccc(NC(=O)CC(c4ccccc4)c4ccccc4)c3)=NO2)CN1C(=O)[C@@H]1CCC(=O)N1 (stereo partly specified),·,·,·,102,i,0.98,·
Cc1cccc2cc3cccc(C)c3nc12,·,·,·,97,i,0.93,·
Cc1ccc(S(=O)(=O)Nc2ccc(C(=O)Nc3cc(C)on3)cc2)cc1,·,·,-5,100,i,1.2,-0.4
CCN=C1SC(CC(=O)NC(N)=O)C(=O)N1CC (stereo unspecified),·,·,2,104,i,0.95,-1.8
COc1ccc(CN2CCN(C(=O)c3ccc(-c4ccccc4)cc3)CC2)c(OC)c1OC,·,·,0,98,i,0.91,·
O=C(/C=C/c1ccncc1)c1cc(Cl)ccc1O,·,·,·,99,?,·,·
Cn1nc(OCCOc2ccccc2)ccc1=O,4,100,-13,93,i,0.99,-2.0
CCOC(=O)c1[nH]cnc1C(=O)Nc1ccccc1OC,-140,99,15,110,i,0.96,·
CC(C)N(C(=O)N1CCC(c2nc(-c3ccncc3)no2)CC1)C(C)C,-19,105,1,103,·,·,-3.1
CCCn1c(NC(=S)Nc2ccccc2)nc2ccccc21,-23,97,-9,101,i,0.8,0.3
O=c1c2ccccc2nnn1CSc1nnc(-c2cccc(S(=O)(=O)N3CCCCC3)c2)o1,-50,209,-1,111,i,1.1,0.4
CCN1C(=O)C(CC(=O)Nc2ccc(OC)cc2)N(CCCN2CCN(c3ccc(OC)cc3)CC2)C1=S (stereo unspecified),-13,72,4,98,i,0.95,·
CCCN(Cc1cc2cc(C)ccc2[nH]c1=O)C(=O)c1ccccn1,·,·,·,105,i,1,·
N#Cc1ccc(CSc2nnc(-c3cccc(S(=O)(=O)N4CCCCC4)c3)o2)cc1,·,·,-4,103,i,1.1,0.3
O=C(CSc1ncnc2c1oc1ccccc12)Nc1cccc(Cl)c1,-24,176,-4,109,i,0.95,-0.5

# The closing 2 compounds of the part above open the next one:
SMILES,INS promoter inh,INS promoter inh cell count,PKD1 inh,RGS16-Gao HTS,HSV replic up,HSV replic up primary fold,GALR2 ag
N#Cc1ccc(CSc2nnc(-c3cccc(S(=O)(=O)N4CCCCC4)c3)o2)cc1,·,·,-4,103,i,1.1,0.3
O=C(CSc1ncnc2c1oc1ccccc12)Nc1cccc(Cl)c1,-24,176,-4,109,i,0.95,-0.5
CCCCNC(=O)C(C#N)c1nc2ccccc2nc1N1CCN(c2ccccc2F)CC1 (stereo unspecified),·,·,2,101,i,1.1,-2.8
CC1CCC(NC(=O)c2cc3c(s2)CS(=O)(=O)C3)CC1 (stereo unspecified),38,126,0,102,i,0.88,-2.1
O=C(Nc1ccc2c(c1)CCC2)c1cnn2c1NC(c1ccco1)CC2C(F)(F)F (stereo unspecified),25,123,-1,98,i,1.2,1.6
CC(C)(C)c1ccc(C(=O)N/C(=C\c2ccco2)C(=O)O)cc1,·,·,-4,107,i,1.1,·
O=C(C1CCCCC1)N1CCN(c2nc(-c3ccc(F)cc3)cs2)CC1,-17,175,-4,106,i,0.96,·
CN(C)S(=O)(=O)c1ccc(N2CCCC2)c(C(=O)NCc2cccc(C(F)(F)F)c2)c1,·,·,-2,102,i,0.92,-1.8
CC1CCc2c(nc3ncnn3c2NCCc2ccccc2F)C1 (stereo unspecified),-41,80,-7,95,i,0.99,·
Cc1ccc(N2CCN(C(=O)NC3CCCCC3)CC2C)cc1 (stereo unspecified),·,·,·,101,i,1,·
Cc1cc(O)c(-c2cc(C(=O)NCCc3ccc(S(N)(=O)=O)cc3)[nH]n2)cc1C,·,·,·,100,i,0.85,·
Cc1cc(C)nc(Sc2ccc3nnc(C(F)(F)C(F)(F)C(F)(F)F)n3n2)n1,-62,86,-9,105,i,1,-2.0
CCN(CC)c1nc(N)nc(N(c2ccccc2)c2ccccc2)n1,·,·,-11,103,i,1,-3.3
COc1ccc(OCc2nnc(SCC(=O)NNC(=O)c3ccc(C)cc3)n2C)cc1,31,128,-5,101,i,1.1,-1.1
CC(C)Oc1ccc(Cn2c(-c3ccco3)n[nH]c2=S)cc1,27,148,-1,98,?,·,-1.3
COc1ccccc1C1C2=C(CC(C)(C)CC2=O)Nc2nnnn21 (stereo unspecified),12,143,4,97,i,1.1,-1.8
CC1Cc2ccccc2N1C(=O)CSc1nnc2c(n1)[nH]c1ccc(F)cc12 (stereo unspecified),73,139,-12,102,i,0.92,-3.2
NCCCC[C@@H]1NC(=O)c2cc([N+](=O)[O-])cc(I)c2SC[C@@H](C(=O)NCC(N)=O)NC(=O)CNC1=O,10,115,2,100,i,0.93,-0.7
CCc1ccc(C(=O)NNc2ccc(Cl)cc2)cc1,·,·,·,98,i,1,·
CN1/C(=C/C=N/n2cnnc2)C(C)(C)c2ccccc21,-288,48,-9,100,i,0.89,0.7
Nc1ccc2nc(CN3CCOCC3)[nH]c2c1,25,100,0,98,·,·,-2.3
COc1cc(-c2c(C#N)c(N)nc3c2c(C)nn3-c2ccc(C)c(C)c2)cc(OC)c1OC,·,·,-12,92,i,0.96,0.1

# 11 compounds out of the list, arranged by molar mass, largest number first.
SMILES,INS promoter inh,INS promoter inh cell count,PKD1 inh,RGS16-Gao HTS,HSV replic up,HSV replic up primary fold,GALR2 ag
CN(C)S(=O)(=O)c1ccc(N2CCCC2)c(C(=O)NCc2cccc(C(F)(F)F)c2)c1,·,·,-2,102,i,0.92,-1.8
COc1cc(-c2c(C#N)c(N)nc3c2c(C)nn3-c2ccc(C)c(C)c2)cc(OC)c1OC,·,·,-12,92,i,0.96,0.1
Cc1cc(C)nc(Sc2ccc3nnc(C(F)(F)C(F)(F)C(F)(F)F)n3n2)n1,-62,86,-9,105,i,1,-2.0
Cc1cc(O)c(-c2cc(C(=O)NCCc3ccc(S(N)(=O)=O)cc3)[nH]n2)cc1C,·,·,·,100,i,0.85,·
CC1Cc2ccccc2N1C(=O)CSc1nnc2c(n1)[nH]c1ccc(F)cc12 (stereo unspecified),73,139,-12,102,i,0.92,-3.2
O=C(C1CCCCC1)N1CCN(c2nc(-c3ccc(F)cc3)cs2)CC1,-17,175,-4,106,i,0.96,·
COc1ccccc1C1C2=C(CC(C)(C)CC2=O)Nc2nnnn21 (stereo unspecified),12,143,4,97,i,1.1,-1.8
CC(C)Oc1ccc(Cn2c(-c3ccco3)n[nH]c2=S)cc1,27,148,-1,98,?,·,-1.3
CC(C)(C)c1ccc(C(=O)N/C(=C\c2ccco2)C(=O)O)cc1,·,·,-4,107,i,1.1,·
CCc1ccc(C(=O)NNc2ccc(Cl)cc2)cc1,·,·,·,98,i,1,·
Nc1ccc2nc(CN3CCOCC3)[nH]c2c1,25,100,0,98,·,·,-2.3

# Carrying on:
SMILES,INS promoter inh,INS promoter inh cell count,PKD1 inh,RGS16-Gao HTS,HSV replic up,HSV replic up primary fold,GALR2 ag
COc1ccc2c(c1)CC(C)C/C2=N\NC(=O)c1ccco1 (stereo unspecified),-8,119,10,104,i,1,·
N#Cc1ccc(C23CC4(C2)[C@H](CN(Cc2cccnc2)[C@@H]4c2ccccc2)C3c2ccccc2)cc1 (stereo partly specified),·,·,·,100,i,1.1,·
CC(=O)OC(C(=O)N1CCN(c2ccc(F)cc2)CC1)c1ccccc1 (stereo unspecified),26,97,-1,101,i,0.96,-2.1
CSc1nnc(NC(=O)c2cc(=O)c3cc(C)cc(C)c3o2)s1,·,·,·,99,i,1.1,·
CCN1C(=O)/C(=C/c2cnn(C)c2C)SC1=S,-29,95,1,114,i,1.1,-2.4
COc1ccc(CN(Cc2ccccn2)S(=O)(=O)c2ccc(-n3cnnn3)c(OC)c2)cc1,3,52,10,98,i,1,-1.2
CCSc1nc2c(c(=O)n(C)c(=O)n2C)n1Cc1ccc(Cl)cc1,39,122,-8,·,i,0.86,0.0
Cc1cc(NC(=O)c2ccc(COc3ccccc3Cl)o2)no1,8,75,-8,100,i,0.94,·
CNc1nc(C)nc(-c2ccccc2O)n1,·,·,-5,104,·,·,0.0
CCOC(=O)C1=C(Cn2cnc3ccccc32)NC(=O)NC1c1cc(C)ccc1C (stereo unspecified),3,100,-9,98,i,0.81,0.4
CCc1[nH]c(=O)c(C#N)c2c1CCCC2,-43,66,-1,97,·,·,-0.3
COc1cc(NC(=O)c2ccc(Cl)cc2)c(OC)cc1NC(=O)CN1CCOCC1,·,·,15,100,i,0.9,-0.9
Cc1oc2cc([N+](=O)[O-])c(O)c([N+](=O)[O-])c2c1C(=O)c1ccc(Br)cc1,39,104,0,100,i,1.1,·
COc1ccc(OC)c(-c2csc(NC(=O)CSc3ccc(Br)cc3)n2)c1,·,·,-7,101,i,1.1,-1.2
C=CC[n+]1c(-c2ccc(OC)cc2)csc1NNC(=O)Nc1ccccc1,23,122,-2,101,i,0.99,-1.1
Cc1cc(C)c(S(=O)(=O)NCc2cn3c(C)csc3n2)c(C)c1,·,·,1,104,i,1,0.1
COc1cc(/C=N/n2c(-c3cc(C)[nH]n3)n[nH]c2=S)ccc1O,·,·,·,103,i,1.1,·
CCOC(=O)c1cc(-c2ccccc2)sc1NC(=O)C(C)N1C(=O)c2ccccc2C1=O (stereo unspecified),-27,129,-4,100,i,0.88,-0.4
Cc1nc(N2CCN(Cc3ccccc3)CC2)nc2c1C(=O)CCC2,·,·,0,89,·,·,-2.1
CC1CCN(S(=O)(=O)c2ccc(S(=O)(=O)N3CCCN(Cc4ccccc4)C3)cc2)CC1,-350,40,-2,·,·,·,0.5
Cc1ccc(OCCN2C(=O)CSC2=O)cc1,·,·,12,94,i,0.84,-0.7
CCN1C(=O)/C(=C/c2c(C)nn(C)c2C)SC1=S,·,·,-10,102,i,0.91,-0.3
CC(C)CCN1CCN(Cc2cnc(N3CCCC3)s2)CC1CCO (stereo unspecified),·,·,-6,102,i,1.1,·
O=C(N/N=C/c1ccccn1)c1ccc2nc[nH]c2c1,·,·,·,95,i,0.92,·
CC(=O)c1cn(C)c(=O)[nH]c1=O,·,·,2,97,i,0.93,·
CCOC(=O)CNC(=O)CSc1nnc(NC(=O)c2ccc(C)cc2)s1,36,115,-1,107,i,1,·
CCc1nnc(NC(=O)CSc2nc3cc(OC)ccc3cc2C)s1,-29,104,0,101,i,0.97,·
Clc1cccc(CN2CCN(c3nc4nonc4nc3NC3CC3)CC2)c1,·,·,-6,97,i,1.1,·
COC(=O)C(NC(=O)c1ccco1)(Nc1cc(C)ccn1)C(F)(F)F (stereo unspecified),55,54,0,134,i,0.89,1.2
CCN(CC)S(=O)(=O)c1ccc(C(=O)Nc2nnc(NC(=S)Nc3ccccc3)s2)cc1,·,·,·,98,i,0.77,·
C=CCOc1ccc(C(=O)N(Cc2ccc(N(C)C)cc2)C2CCS(=O)(=O)C2)cc1 (stereo unspecified),41,90,-1,101,i,1,-0.9
O=C(N/N=C/c1cccc(O)c1)c1cc(-c2ccc3c(c2)OCO3)n[nH]1,50,111,5,105,i,0.79,-0.4
CCOC(=O)CNC(=S)SC,·,·,·,108,i,0.94,·
O=C(O)CCn1c(O)c(C=C2N=c3ccccc3=N2)sc1=S,·,·,·,99,i,1.2,·
N=C(N)c1ccc(OCCCCCOc2ccc(C(=N)N)cc2)cc1,32,138,4,104,i,0.78,-0.3
O=C(c1ccc(COc2c(F)c(F)cc(F)c2F)o1)N1CCN(c2ccccc2)CC1,-42,170,-4,96,i,1.2,0.2
O=C(c1ccc(-n2cnnn2)cc1)N(C1CCCCC1)C1CCCCC1,40,84,1,100,i,0.88,·
Cc1c(S(=O)(=O)NCCc2ccccc2)c(=O)n(C)c(=O)n1C,·,·,·,105,i,0.98,·
NC(=O)c1ccccc1NS(=O)(=O)Cc1ccccc1,-6,82,-5,100,i,1,0.0
CCCc1nc2ccccc2c(C(=O)O)c1CC,21,94,14,102,·,·,-0.9
CS(=O)(=O)Nc1ccccc1C(=O)N1CCOCC1,-19,75,-3,100,i,0.96,-0.2
CCc1c(C)nc2[nH]nc(-c3ccccc3)n2c1=O,·,·,9,98,i,0.85,0.5
